OX1R antag: OX1R (HCRTR1) antagonists, primary screen, fluorescence, CHO/OX1R cells, Fluo-8 calcium, orexin A. inhibition, % at 5 µM. Orexin/Hypocretin receptor type 1 (Homo sapiens), O43613. Fluo-8 calcium fluorescence. AID 434989, 2010. actives 0.43% (n = 330,000);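 active = inhibition above its plate's threshold, mean inhibition of all tested compounds on the plate plus 3 SD, cut at about 37% in these data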;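 also: 0% = orexin A challenge wells and 100% = SB-334867-A antagonist wells; not every result past the cut was called active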
Target sequence (O43613 whole entry, looked up): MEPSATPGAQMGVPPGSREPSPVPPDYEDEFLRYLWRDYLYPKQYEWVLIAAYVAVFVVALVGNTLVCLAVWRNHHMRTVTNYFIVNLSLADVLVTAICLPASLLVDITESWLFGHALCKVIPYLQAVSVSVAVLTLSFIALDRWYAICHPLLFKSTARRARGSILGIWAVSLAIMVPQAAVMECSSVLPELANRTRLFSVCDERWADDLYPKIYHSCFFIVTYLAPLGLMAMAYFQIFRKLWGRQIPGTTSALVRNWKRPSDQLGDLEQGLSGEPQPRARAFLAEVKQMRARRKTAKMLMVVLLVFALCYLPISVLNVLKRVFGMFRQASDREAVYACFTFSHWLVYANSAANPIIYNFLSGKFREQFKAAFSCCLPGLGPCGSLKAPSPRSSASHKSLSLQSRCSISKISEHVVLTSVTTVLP
Numbers without * were called inactive; & = joins results of further samples. These rows are one share of the data, and most or all hits are left out here.

SMILES,OX1R antag
CCc1ccc(/C=C(\C)C(=O)c2c(C)cc(C)[nH]c2=O)cc1,-2
O=C(CN(c1ccccn1)S(=O)(=O)c1ccc(F)cc1)Nc1ccccc1,1
COc1ccc(CNC(=O)CN(c2cc(C)cc(C)c2)S(=O)(=O)c2c(C)[nH]c(=O)[nH]c2=O)cc1,-2
Cc1cc(C)nc(SCc2nnc(SCC(=O)Nc3cc(C(F)(F)F)ccc3Cl)o2)n1,-19
Cc1cc(C)c(S(C)(=O)=O)c(Oc2ccc(F)cc2)n1,-10
Cc1cccc(-c2nc(CS(=O)CC(=O)NCC3CCCO3)c(C)o2)c1 (centres undefined),-21
CN(CC(=O)N1CCN(c2ncccn2)CC1)S(=O)(=O)c1ccc(Cl)cc1,-30
Cc1cccc(OCC(=O)N/N=C\c2cc3c(cc2[N+](=O)[O-])OCO3)c1C,-3
COc1ccc2[nH]c(C(=O)Nc3ccc4c(c3)OCO4)cc2c1,-6
CC1CC(C)CN(S(=O)(=O)c2ccc(Cl)cc2)C1 (centres undefined),-16
CCCCn1c(N)c(NCc2ccccc2OC)c(=O)[nH]c1=O,-13
Cn1ccnc1SCc1cccc([N+](=O)[O-])c1,-7
COc1cc(-c2nc(N)n[nH]2)cc(OC)c1OC,-8
O=S(=O)(NCc1ccc2c(c1)OCO2)c1ccc(F)c(F)c1,-19
CCOc1cc(NS(=O)(=O)c2ccc(Cl)cc2)c(OCC)cc1NC(=O)CC(C)C,-35
COc1ccc(N(C(=O)Cn2nnc3ccccc32)C(C(=O)NCc2ccco2)c2cccnc2)cc1 (centres undefined),-43
CCCc1nnc(NC(=O)CCCC(=O)O)s1,2
Cc1ccc(-c2nn(CCC(=O)O)cc2/C=C\C(=O)c2ccc(Br)cc2)cc1,-20
O=C(c1ccco1)N1CCN(C(=O)C2CC(=O)N(c3ccc(Cl)cc3)C2)CC1 (centres undefined),2
COc1ccc(-n2c(SCc3ccccn3)nc3c(c2=O)SCC3)cc1OC,-14
CCc1ccccc1N1C(=O)C2C3C=CC(CC3)C2C1=O (centres undefined),-22
COc1ccc(NC(=O)CN2C(=O)COc3ccc(S(=O)(=O)N4CCOCC4)cc32)c(OC)c1,-28
Cc1onc(-c2ccccc2)c1C(=O)c1c[nH]c(C(=O)NCc2ccccn2)c1,-21
CC1(c2nnc(Cc3ccccc3)o2)CC(c2cccnc2)=NO1 (centres undefined),-16
Oc1ccc(N2CCN(C(c3cccnc3)c3nnnn3Cc3ccccc3)CC2)cc1 (centres undefined),-9
CC(C)(C)Nc1nc(NCc2cccnc2)nc(N2CCOCC2)n1,-22
CC(C)NC(=O)CSc1nnc(-c2ccc3ncccc3c2)n1C,-19
Cc1nnc(SC(C)C(=O)NC2CCCCC2C)s1 (centres undefined),-22
COC(=O)c1cc(C)sc1NC(=O)c1ccco1,-18
Cc1c(NC(=O)CSC(=S)N2CCCC2)c(=O)n(-c2ccccc2)n1C,-8
O=C(Nc1nccs1)C1CCN(S(=O)(=O)c2ccc(Cl)c(C(F)(F)F)c2)CC1,-10
c1ccc2c(CNn3cnnc3)cccc2c1,0
COC(=O)C1C(C(=O)OC)C1(c1ccccc1)c1ccccc1 (centres undefined),-22
Cc1ccc(F)c([C@H]2[C@@H]3C=CCC[C@@]3(C)C(=O)N2Cc2ccccc2)c1,-32
Cc1ccc(C(=O)N2CCC(C)CC2)cc1S(=O)(=O)N1CCCCC1,-10
CCOC(=O)Cn1c(-c2nonc2NC(=O)c2ccccc2F)nc2ccccc21,-26
Cc1ccccc1Nc1nnc(SCC(=O)NCc2ccco2)s1,-13
O=C(O)c1ccc(-n2nc(C(F)(F)F)c3c2CCCC3)cc1,-13&-2
CN1CCN(c2cc(=O)n(C3CCCCC3)c(=O)[nH]2)CC1,-6
CCN(c1ccc(OC)cc1)S(=O)(=O)c1nnc(NC(=O)c2ccccc2Cl)s1,-21
Cc1ccc(N2CC(C(=O)N3CCC4(CC3)CC(=O)c3ccccc3O4)CC2=O)cc1 (centres undefined),-33
CCOC(=O)C1=C(C)NC2=C(C(=O)C(C(=O)OCC)C(c3cccc(OC)c3)C2)C1c1ccccn1 (centres undefined),-38
CCOCCc1c(O)nc(SC)[nH]c1=O,-20
CCOc1ccccc1C(=O)N(Cc1ccco1)C1CCS(=O)(=O)C1 (centres undefined),-14
Fc1ccc(NC(=S)NCc2cccnc2)cc1,-8
O=C(c1cccs1)N1CCC2(O)CCCCC2C1c1ccc(F)cc1 (centres undefined),-44
CC(C)C(=O)n1nc(-c2cccnc2)nc1NCc1ccc(F)cc1,-23
CCN(CC)CCNC(C(=O)Nc1cccc(C(C)=O)c1)c1ccccc1 (centres undefined),-26
CN(C)/C=C1\C=C(c2ccccc2)OC1=O,-8
CCCCN(C(=O)c1cc(S(=O)(=O)N2CCOCC2)ccc1Cl)c1c(N)n(CC(C)C)c(=O)[nH]c1=O,-12
COc1ccc(NC(=O)CN2CCN(C(=O)N3CCOCC3)CC2)cc1,13
Cc1cc(C)nc(N2CCC(C(=O)NCc3cccc(C(F)(F)F)c3)CC2)n1,-9
COc1ccc(-c2noc(CCC(=O)NCCc3cccc(C)c3)n2)cc1,-21
Cc1cc(NC(=O)CSc2nnc(CNc3ccc(F)cc3)n2C2CCCCC2)no1,-27
COc1ccc(/C=C(/NC(=O)c2ccccc2)c2nc3ccc(Cl)cc3[nH]2)cc1OC,-4
OCC[C@H]1C[C@@H](O)[C@H](O)[C@]2(OCc3ccccc32)O1,-3
O=[N+]([O-])c1ccccc1N/N=C1\CC2CC=CC12 (centres undefined),-17
O=C(O)CCc1ccc(-c2ccc(Cl)cc2)n1CCC(=O)O,7
CCOc1ccccc1N(CC(=O)Nc1cccnc1)S(C)(=O)=O,-9
Cc1cc(C)n(CCN(C)C(=O)CCc2nnc(-c3ccc4c(c3)OCO4)o2)n1,-15

The listing continues.
SMILES,OX1R antag
CCc1ccc(-c2cc(C)no2)cc1S(=O)(=O)Nc1cccc(CN2CCCC2)c1,-8
Cn1c(CNC(=O)c2ccco2)nnc1SCC(=O)N1c2ccccc2Sc2ccccc21,-23
CCCN1C2CCCC1CC(NC(=O)c1cc(OC)c(OC)c(OC)c1)C2 (centres undefined),-9
O=C(CSc1cn(CC(=O)N2CCCC2)c2ccccc12)NCC1CCCO1 (centres undefined),-36
COc1ccc(CCNC(=O)c2c(C)nc3ccccn23)cc1,-9
COc1ccc(OC)c(S(=O)(=O)Nc2cccc3c(O)cccc23)c1,-7
CC(C)CC(=O)Nc1ccc(S(=O)(=O)NCc2ccco2)cc1,-3
Cc1ccccc1C(=O)c1ccc2c(c1)n(C)c(=O)n2C,-17
O=S(=O)(NCc1cccs1)c1ccccc1Cl,-11
O=C1CC2(CCCC2)Oc2ccccc21,-7
CCOCCCNC(=S)Nc1ccc2nc(N3CCOCC3)cc(C)c2c1,-4
Cc1cc(C)n2c(SCC(=O)Nc3ccc(F)cc3F)nnc2n1,-5
Cc1cc(NC(=O)CSCc2nc(-c3cccc(F)c3)oc2C)no1,-32
CCc1ccc(-c2csc3nc[nH]c(=O)c23)cc1,-16
Cc1nc(N2CCN(Cc3ccccc3)CC2)nc2c1C(=O)CC(c1ccco1)C2 (centres undefined),-22
CCCCc1c(C)c(C#N)c2[nH]c3ccccc3n2c1=O,-18
Cc1ccc(-c2nnn(CC(=O)N(Cc3cccs3)C(C(=O)NC3CCCC3)c3ccncc3)n2)cc1 (centres undefined),-25
Cn1c(=O)[nH]c(=O)c2c1nc(NCc1ccccc1)n2CC(O)c1ccccc1 (centres undefined),-22
Cc1sc(NC(=O)CSc2nnc(COc3ccc(Cl)cc3)n2C)c(C#N)c1C,-6
CC1(C)C(=O)Nc2ccccc2N1C(=O)COC(=O)c1cc([N+](=O)[O-])ccc1N,-15
CC(C)Cc1cc(C(=O)Nc2ccc(F)cc2F)no1,-12
CC(C)NS(=O)(=O)c1ccc(OCC(=O)N(C)Cc2ccccc2)cc1,1
Cc1ccc(CNC(=O)CSc2nc(C)cc(C)c2C#N)cc1,-15
O=c1c2ccccc2oc2nc(-c3ccco3)n(Cc3ccccc3)c(=O)c12,-14
Cc1nn(CC(=O)c2ccc(Br)s2)c(C)c1[N+](=O)[O-],-11
COc1cc2ccccc2cc1C(=O)Nc1ccc(N2CCN(C)CC2)cc1,-3
Cc1ccc(N=Cc2cc3c(cc2[N+](=O)[O-])OCO3)cc1[N+](=O)[O-],-2
COC(=O)c1cccc(Cn2nc(C)c([N+](=O)[O-])c2C)c1,-23
CCN(CC)CCN1C(=O)C(=O)/C(=C(/O)c2ccc(F)cc2)C1c1cccnc1 (centres undefined),-11
CC(=O)Nc1ccc(NC(=O)CCCSc2nc3ccccc3[nH]2)cc1,2

Retrieved by compound from above:
SMILES,OX1R antag
O=C(c1cccs1)N1CCC2(O)CCCCC2C1c1ccc(F)cc1 (centres undefined),-44
CCCCN(C(=O)c1cc(S(=O)(=O)N2CCOCC2)ccc1Cl)c1c(N)n(CC(C)C)c(=O)[nH]c1=O,-12

(further entries)
SMILES,OX1R antag
CC(=O)Nc1ccc(NC(=O)CC(C)n2ccnc2)cc1 (centres undefined),4
O=Cc1cccc(Oc2ncccn2)c1,-8
CCCc1cc(C(=O)OC)c(NC(=O)c2cc(C)on2)s1,-45
COCCNC(=O)c1ccccc1NC(=O)CN(c1ccc2c(c1)OCO2)S(C)(=O)=O,-10
CC1CCN(S(=O)(=O)c2ccc3c(c2)N(CC(=O)NCCCN2CCCC(C)C2)C(=O)CS3)CC1 (centres undefined),-14
CCOC(=O)c1cc(CC)sc1NC(=O)c1cc([N+](=O)[O-])ccc1N1CCOCC1,-21
COc1ccc(N(CC(=O)NCCC2=CCCCC2)S(C)(=O)=O)cc1,-35
CN1CCC(NC(=S)Nc2cccc([N+](=O)[O-])c2)CC1,-19
CCOC(=O)C1CCCc2c1[nH]c1c(C(N)=O)cccc21 (centres undefined),-19
Cc1[nH]c2ccc(F)cc2c1CCN(Cc1cccnc1)C(=S)Nc1ccccc1,-27
O=C(N/N=C/c1ccccc1)C(O)c1ccccc1 (centres undefined),3
CC(=O)CSc1nc2ccccc2s1,-14
CN(C)C(C)(C)C#CCCCCC#CC(C)(C)N(C)C,6
c1ccc(Nc2cccc(Nc3ccccc3)n2)cc1,-14
CCN1CCN(S(=O)(=O)c2ccc(S(=O)(=O)NC3CC3)cc2)CC1,-18

Molecules listed so far containing a CF3 group:
SMILES,OX1R antag
Cc1cc(C)nc(SCc2nnc(SCC(=O)Nc3cc(C(F)(F)F)ccc3Cl)o2)n1,-19
O=C(Nc1nccs1)C1CCN(S(=O)(=O)c2ccc(Cl)c(C(F)(F)F)c2)CC1,-10
O=C(O)c1ccc(-n2nc(C(F)(F)F)c3c2CCCC3)cc1,-13&-2
Cc1cc(C)nc(N2CCC(C(=O)NCc3cccc(C(F)(F)F)c3)CC2)n1,-9

(more compounds)
SMILES,OX1R antag
O=C1c2ccccc2C(=O)N1CCCCN(C(=O)c1cccc([N+](=O)[O-])c1)c1ccc(Cl)cc1,-25
CCOCCCNC(=O)c1ccc(OC)cc1,-8
O=C(O)CN(c1cccc(C(F)(F)F)c1)S(=O)(=O)c1ccccc1,-8
Cc1c(C(=O)N2CCOCC2)c(S(=O)(=O)Nc2ccccc2)c(C)n1C,-9
Cc1ccc(N(C)C(=O)c2ccc3c(Cl)c4c(nc3c2)CCC4)cc1C,-38
CC(C)NC(=O)NC(=O)COc1ncnc2sccc12,-1
CC(C)(C)NC(=O)C(c1ccc(Cl)cc1)N(CCO)C(=O)c1snc(C(N)=O)c1N (centres undefined),-12
S=c1[nH]nc(-c2ccncc2)n1CC1CCCO1 (centres undefined),-9
CC[C@H](C)[C@H](NC(N)=O)C(=O)NNC(=O)c1ccc(COc2cccc3cccnc23)cc1,1
Oc1ccc(Br)cc1CNc1ccccn1,-14
CCn1c(SCC(=O)NC2CCCCC2)nc2c(c1=O)SC(C)C2 (centres undefined),-25
Cc1cc(NC(=O)CCN2C(=O)/C(=C\c3ccccc3)SC2=S)no1,-19
NS(=O)(=O)c1ccc(CCNC2CC(=O)N(Cc3ccccc3)C2=O)cc1 (centres undefined),-15
c1nnc(NC2=NCCCCC2)s1,0
Cc1ccc(-c2nc(N)c3c(-c4ccc(C)cc4)nn(C(C)(C)C)c3n2)cc1,-19
Nc1c(N(CCC2=CCCCC2)C(=O)C2CC2)c(=O)[nH]c(=O)n1Cc1ccccc1,-10
COC(=O)[C@H](NC(=O)c1cc(-c2ccccc2)nc2ccccc12)c1ccccc1,-7
NC(=O)CC(NC(=O)Cc1cccc2ccccc12)c1ccc(NC2CCC2)c([N+](=O)[O-])c1 (centres undefined),-17
CCn1c(SCC(=O)NC(=O)NC(C)(C)C)nc2ccccc21,-14
NNC(=S)Nc1ccccc1Cl,-9
CCOC(=O)c1cnn(-c2nc(-c3ccccc3)cs2)c1C(F)(F)F,20
Cc1ccc([N+](=O)[O-])c(OCCn2cnc3ccccc32)c1,-16
CCC(=O)N1CCN(c2cc(C)ccc2C)CC1,-23
COc1ccc(CC(=O)NC2CC2)cc1OC,-20
CC(C)C1CC(=O)NC(SCC(=O)Nc2ccc(Br)cc2)=C1C#N (centres undefined),23
COc1ccc(OC)c(NC(=O)c2cnn(-c3ccccc3Cl)c2NC(=O)c2ccco2)c1,-21
CCOC(=O)c1c(S(=O)(=O)N2CCN(Cc3ccccc3)CC2)c(C)n(C)c1C,0
Cc1cc(=O)nc2c3ccccc3n(CC(=O)NCCCN3CCOCC3)n12,-4

Compound activity (PubChem BioAssay)
